Mtb hypoxia rep: Mtb hypoxia fluorescent reporter inhibition | M. tuberculosis hypoxia-regulated fluorescent reporter, fluorescence | fluorescence inhibition, % (test concentration not listed) | 300,000 compounds, 0.1% hits | AID 1159583;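 active = 35 to 45% if threefold the growth effect, above 45% if 1.5-fold the growth effect; inactive = the rest, general growth blockers included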;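 note: wells of about 50 µL received 100 nL stock; 0% = vehicle wells and 100% = reference inhibitor wells; whole bacteria with a GFP reporter of the hypoxia response; strong numbers were not always called active; many hits fall short of the cut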
ugtP null kill: kills S. aureus RN4220 lacking UgtP; S. aureus RN4220 ugtP deletion, OD600 growth, 16 h; some inactives read as strong as hits; growth inhibition, % (test concentration not listed); 330,000 compounds, 0.54% hits; AID 1259309;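 active = z-score under -3 and OD600 up to 0.15 on both plates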;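 note: plate controls were untreated wells for no effect and antibiotic for full effect; wells of about 80 µL received 100 nL stock; the first replicate is given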
PrP 5UTR inh: inhibition of PrP 5' UTR reporter expression; cell-based PrP 5' UTR mRNA reporter, plate reader; inhibition, % (test concentration not listed); 340,000 compounds, 0.35% hits; AID 488862;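 active = every replicate at 50% or more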;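 note: 0 = median of the neutral control wells; tested in H4 reporter cells; numbers are from one replicate; inactives centre near -14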
RN4220 kill: kills Staphylococcus aureus RN4220. S. aureus RN4220 growth, OD600, 16 h. inhibition, % (concentration not given with the values). 330,000 compounds, 0.33% hits;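 active = z-score of -3 or lower and OD600 up to 0.18 on both plates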;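 note: plate controls were untreated cells for no effect and reference antibiotic for full effect; stock transfer was 100 nL into about 80 µL; one replicate is shown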
Autofluor counter: counter-screen for toxin protease inhibitors: compound fluorescence. compound autofluorescence counterscreen, microsphere flow cytometry; stronger effect = higher value. 360,000 compounds, 3.1% hits. fluorescence intensity (no concentration beside the values);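 active = at least 3 SD above the mean of all compounds, about 16000 in these data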;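 note: 100 nL of 1 mM stock went into each well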
BJeLR lethal: kills HRASV12-expressing BJeLR cells; BJeLR (HRASV12) viability, CellTiter-Glo ATP luminescence, 48 h; reference of the scale not given here; inhibition, % (test concentration not listed); 300,000 compounds, 0.17% hits; AID 1554;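 active = replicate mean above 50%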;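 note: 50 nL library stock added to about 25 µL; numbers are from one replicate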
Mtb hypoxia rep growth: recorded beside Mtb hypoxia rep, whose call it bears; growth inhibition, %; measured here: M. tuberculosis growth (absorbance);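 0% = vehicle and 100% = reference antibiotic; read after six days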
* = called active by the depositor.

`FC(F)(F)c1ccc(-n2cnc3ccccc32)nc1` gave Mtb hypoxia rep 0, ugtP null kill 11, PrP 5UTR inh -9, RN4220 kill 4.4, Autofluor counter 3114, BJeLR lethal 0 and Mtb hypoxia rep growth -1.
For O=C1CN(C(=O)c2ccc(Br)o2)C(c2ccccc2)c2cc(Cl)ccc2N1 (stereo not given) the results were Mtb hypoxia rep -10, ugtP null kill -10, PrP 5UTR inh -5, RN4220 kill 7.0, Autofluor counter 4922, BJeLR lethal 5 and Mtb hypoxia rep growth 1.
Screening N#CCCN(C(=O)COC(=O)C12CC3CC(CC(O)(C3)C1)C2)c1ccc(F)cc1 returned Mtb hypoxia rep 5, ugtP null kill 1, PrP 5UTR inh -19, RN4220 kill -3.2, Autofluor counter 8916 and Mtb hypoxia rep growth 8.
`COc1cc(CNCCSc2nnnn2C)cc(Br)c1OCc1ccc(F)cc1` gave Mtb hypoxia rep 5, ugtP null kill 5, PrP 5UTR inh -5, RN4220 kill 1.9, Autofluor counter 2788, BJeLR lethal -2 and Mtb hypoxia rep growth 17.
`N#C/C(=C\c1ccc(O)c(O)c1)S(=O)(=O)c1ccccc1` gave Mtb hypoxia rep 22, ugtP null kill 7, PrP 5UTR inh -23, RN4220 kill 6.4, Autofluor counter 4725, BJeLR lethal 5 and Mtb hypoxia rep growth -7.
For Clc1ccc2oc3c(Cl)ncnc3c2c1 the results were PrP 5UTR inh -16, Autofluor counter 2205 and BJeLR lethal -2.
`CCN(CC)c1nc2c(c(=O)[nH]c(=O)n2C)n1CCOc1ccccc1` gave Mtb hypoxia rep 10, ugtP null kill 5, PrP 5UTR inh -9, RN4220 kill 8.5, Autofluor counter 3303, BJeLR lethal -5 and Mtb hypoxia rep growth -2.
For CCCOc1ccc(-c2c(C(=O)NN=Cc3ccc(C)o3)nnn2-c2nonc2N)cc1 the results were Mtb hypoxia rep 13, ugtP null kill 7, RN4220 kill -3.4 and Mtb hypoxia rep growth 4.
`CCNc1nc(NCC)nc(NN=C(C)c2ccc(OC)cc2)n1` gave Mtb hypoxia rep 9, ugtP null kill 14, RN4220 kill 5.5 and Mtb hypoxia rep growth -1.
Screening O=C(NCc1nnc(SCC(=O)N2CCN(c3ccccc3)CC2)o1)c1ccco1 returned ugtP null kill 11, PrP 5UTR inh -19, RN4220 kill 4.8, Autofluor counter 4683 and BJeLR lethal 0.
`Cc1cc(C(=O)CS(=O)(=O)c2ccc(Cl)cc2)cc(C)c1O` gave Mtb hypoxia rep 16, ugtP null kill 13, PrP 5UTR inh -43, RN4220 kill 8.5, Autofluor counter 3776, BJeLR lethal -4 and Mtb hypoxia rep growth 2.
C=C(C)C1CC=C(C)C(=NNC(=O)COc2ccc(C)cc2)C1 (stereo not given) was read as Mtb hypoxia rep 3, ugtP null kill 2, RN4220 kill 3.6 and Mtb hypoxia rep growth 1.
Screening Cc1ccccc1C(=O)OC(C)CN1CCN(C)CC1 (stereo not given) returned Mtb hypoxia rep 6, ugtP null kill 5, PrP 5UTR inh -14, RN4220 kill 1.9, Autofluor counter 4309, BJeLR lethal 1 and Mtb hypoxia rep growth 3.
Screening Cc1ccc(S(=O)(=O)N2CCN(c3nc4ccccc4nc3-n3nc(C)cc3C)CC2)cc1 returned ugtP null kill 15, PrP 5UTR inh -11, RN4220 kill 34, Autofluor counter 2571 and BJeLR lethal 3.
CCc1cccc(CC)c1NC(=O)C1CSC2(C)CCC(=O)N12 (stereo not given) was read as PrP 5UTR inh -11, Autofluor counter 6381 and BJeLR lethal -4.

Next section; it opens with the 4 that closed the last part.
C=C(C)C1CC=C(C)C(=NNC(=O)COc2ccc(C)cc2)C1 (stereo not given) was read as Mtb hypoxia rep 3, ugtP null kill 2, RN4220 kill 3.6 and Mtb hypoxia rep growth 1.
Screening Cc1ccccc1C(=O)OC(C)CN1CCN(C)CC1 (stereo not given) returned Mtb hypoxia rep 6, ugtP null kill 5, PrP 5UTR inh -14, RN4220 kill 1.9, Autofluor counter 4309, BJeLR lethal 1 and Mtb hypoxia rep growth 3.
Screening Cc1ccc(S(=O)(=O)N2CCN(c3nc4ccccc4nc3-n3nc(C)cc3C)CC2)cc1 returned ugtP null kill 15, PrP 5UTR inh -11, RN4220 kill 34, Autofluor counter 2571 and BJeLR lethal 3.
CCc1cccc(CC)c1NC(=O)C1CSC2(C)CCC(=O)N12 (stereo not given) was read as PrP 5UTR inh -11, Autofluor counter 6381 and BJeLR lethal -4.
Cc1ccc(SCC(=O)NCc2ccco2)cc1 was read as Mtb hypoxia rep 3, ugtP null kill 2, PrP 5UTR inh -15, RN4220 kill 1.0, Autofluor counter 3159, BJeLR lethal 4 and Mtb hypoxia rep growth 8.
Screening CCOC(=O)c1ccc2cccc(C)n2c1=O returned ugtP null kill 12, PrP 5UTR inh -8, RN4220 kill 1.0, Autofluor counter 2272 and BJeLR lethal 0.
`COC(=O)c1ccccc1NC(=O)CSc1nnnn1C` gave ugtP null kill 3, PrP 5UTR inh -10, RN4220 kill 1.8, Autofluor counter 5168 and BJeLR lethal 0.
Screening O=C(CON=Cc1ccccc1O)N1CCc2ccccc21 returned Mtb hypoxia rep 5, ugtP null kill -5, RN4220 kill 4.6 and Mtb hypoxia rep growth 2.
Screening CCOC(=O)C1=C(C)N(C[C@@H]2CC[C@@H](Cc3ccc4cc(OC)ccc4c3)O2)C(=O)NC1c1ccc(OC)cc1 (stereo not given in full) returned Mtb hypoxia rep -10, ugtP null kill -8, PrP 5UTR inh -10, RN4220 kill -7.0, Autofluor counter 3066 and Mtb hypoxia rep growth 0.
Screening CCN1C(=O)C2C(c3ccccc3)N3C(=O)N(c4cccc(F)c4)C(=O)[C@@]3(CC(C)C)C2C1=O (stereo not given in full) returned Mtb hypoxia rep 14, ugtP null kill -3, RN4220 kill 2.3 and Mtb hypoxia rep growth 8.
`COc1ccc(C(=O)NCc2nnc(SCC(=O)Nc3cccc(F)c3)o2)cc1` gave PrP 5UTR inh -20, Autofluor counter 2911 and BJeLR lethal -2.
For CN(C)CCCCCN(C)Cc1cc2ccccc2o1 the results were Mtb hypoxia rep -1, ugtP null kill 7, PrP 5UTR inh -15, RN4220 kill 4.4, Autofluor counter 4883, BJeLR lethal 4 and Mtb hypoxia rep growth 12.
CCCCCC(=O)Nc1cccc(C2=NOC3(C2)C[C@@H](C(N)=O)N(C(=O)Cc2ccc([N+](=O)[O-])cc2)C3)c1 (stereo not given in full) was read as PrP 5UTR inh -14, Autofluor counter 3708 and BJeLR lethal 10.
CCOC(=O)c1[nH]c2cc(OC)c(OC)cc2c1NC(=O)CN1CCN(C)CC1 was read as Mtb hypoxia rep 4, ugtP null kill 2, RN4220 kill 2.0 and Mtb hypoxia rep growth 8.
For CC(=O)N1CCN(C(=O)c2cc(S(=O)(=O)N3CCCCC3)ccc2Cl)CC1 the results were Mtb hypoxia rep 10, ugtP null kill -4, PrP 5UTR inh -7, RN4220 kill 4.9, Autofluor counter 5614, BJeLR lethal 5 and Mtb hypoxia rep growth -3.
`Cc1ccc(C(=O)NC(Cc2cccc(C(F)(F)F)c2)C(=O)O)cc1` (stereo not given) gave Mtb hypoxia rep 1, ugtP null kill 4, PrP 5UTR inh 44, RN4220 kill 5.3, Autofluor counter 3152 and Mtb hypoxia rep growth 3.
Screening O=C(Cc1c[nH]c2ccccc12)N[C@@H](Cc1c[nH]c2ccccc12)C(=O)O returned Mtb hypoxia rep 6, ugtP null kill 1, PrP 5UTR inh -28, RN4220 kill -0.5, Autofluor counter 3685, BJeLR lethal 1 and Mtb hypoxia rep growth 6.
Screening CCOc1ccc(Nc2nc(Nc3ccc(O)cc3)nc(C)c2[N+](=O)[O-])cc1 returned Mtb hypoxia rep -1, ugtP null kill -4, PrP 5UTR inh -4, RN4220 kill 1.2, Autofluor counter 4367, BJeLR lethal -6 and Mtb hypoxia rep growth -7.
`Cc1cc(Cl)ccc1OCC(=O)Nc1cccnc1` gave Mtb hypoxia rep 5, ugtP null kill 9, PrP 5UTR inh -32, RN4220 kill 6.1, Autofluor counter 2791, BJeLR lethal 0 and Mtb hypoxia rep growth -2.
CCC(CC)c1nnc(NC(=O)CCc2ccccc2)s1 was read as Mtb hypoxia rep 2, ugtP null kill 12, PrP 5UTR inh -9, RN4220 kill 3.2, Autofluor counter 4397, BJeLR lethal -1 and Mtb hypoxia rep growth -6.
Screening COc1ccccc1/C=C/C=Nn1c(-c2ccc(C)cc2)n[nH]c1=S returned Mtb hypoxia rep 25, ugtP null kill -7, RN4220 kill 19 and Mtb hypoxia rep growth 12.
CCCCNC(=O)CSc1nc(N)c(C(=O)Nc2ccc(OC)cc2)s1 was read as Mtb hypoxia rep 18, ugtP null kill 5, PrP 5UTR inh -23, RN4220 kill 1.5, Autofluor counter 6269, BJeLR lethal -1 and Mtb hypoxia rep growth 16.
`COc1ccccc1OCc1nc(C#N)c(NCCCn2ccnc2)o1` gave Mtb hypoxia rep -3, ugtP null kill -12, PrP 5UTR inh 7, RN4220 kill -0.7, Autofluor counter 3222, BJeLR lethal -8 and Mtb hypoxia rep growth 5.
For CCCCCCNc1c(C(=O)OCC)c(=O)[nH]c2ccccc12 the results were Mtb hypoxia rep 14, ugtP null kill 0, PrP 5UTR inh -14, RN4220 kill 8.0, Autofluor counter 2684, BJeLR lethal -2 and Mtb hypoxia rep growth 5.
Screening CC(NC(=O)COC(=O)/C(=C/c1cccs1)c1cccs1)c1ccccc1 (stereo not given) returned Mtb hypoxia rep -1, ugtP null kill 28, PrP 5UTR inh -2, RN4220 kill -9.3, Autofluor counter 2122, BJeLR lethal -3 and Mtb hypoxia rep growth 6.
Screening O=C(NNC(=O)c1cccs1)c1ccc(F)cc1 returned Mtb hypoxia rep 6, ugtP null kill -3, PrP 5UTR inh -31, RN4220 kill 2.4, Autofluor counter 3828, BJeLR lethal -10 and Mtb hypoxia rep growth 2.
COc1ccc(C=NNC(=O)c2ccccc2F)cc1COc1ccc(F)cc1F was read as Mtb hypoxia rep -1, ugtP null kill 10, RN4220 kill 2.1 and Mtb hypoxia rep growth 3.
Screening COc1cccc(/C=N/NC(=O)CSc2cccc3cccnc23)c1 returned PrP 5UTR inh -9, Autofluor counter 4139 and BJeLR lethal -10.
CC(C)CCn1c(=O)c2ccccc2n2c(CCC(=O)NC3CCN(Cc4ccccc4)CC3)nnc12 was read as Mtb hypoxia rep 2, ugtP null kill 3, PrP 5UTR inh 1, RN4220 kill 0.4, Autofluor counter 5655, BJeLR lethal -4 and Mtb hypoxia rep growth 6.
For Cn1nc(C(F)(F)F)c(C#N)c1N1CCN(c2ccccn2)CC1 the results were Mtb hypoxia rep 10, ugtP null kill -1, PrP 5UTR inh -10, RN4220 kill 0.2, Autofluor counter 4417, BJeLR lethal 6 and Mtb hypoxia rep growth 0.
`COc1ccc(CC2(CO)CCN(Cc3cccnc3)CC2)cc1` gave Mtb hypoxia rep 11, ugtP null kill 0, PrP 5UTR inh -29, RN4220 kill 6.9, Autofluor counter 4214, BJeLR lethal 8 and Mtb hypoxia rep growth -1.
CNC(=S)N1CCN(c2c(F)cc3c(=O)c(C(=O)O)cn(C4CC4)c3c2OC)CC1C (stereo not given) was read as ugtP null kill 100*, PrP 5UTR inh -18, RN4220 kill 100*, Autofluor counter 2952 and BJeLR lethal -1.
Cc1nn(-c2ccccc2)c(C)c1C(=O)Nc1ccc(N2CCOCC2)cc1 was read as Mtb hypoxia rep 10, ugtP null kill 10, PrP 5UTR inh -25, RN4220 kill 0.5, Autofluor counter 4352, BJeLR lethal -5 and Mtb hypoxia rep growth 7.
Screening COc1ccc2oc(=Nc3cc(F)ccc3F)c(C(N)=O)cc2c1 returned Mtb hypoxia rep 10, ugtP null kill 15, PrP 5UTR inh -33, RN4220 kill 6.7, Autofluor counter 3197, BJeLR lethal 19 and Mtb hypoxia rep growth 10.
For O=C(O)c1cc(N2C(=O)C3C4C=CC(C4)C3C2=O)ccc1NCc1cccnc1 (stereo not given) the results were Mtb hypoxia rep 2, ugtP null kill 0, PrP 5UTR inh -16, RN4220 kill 2.8, Autofluor counter 23049*, BJeLR lethal -4 and Mtb hypoxia rep growth -3.
For CCOC(=O)C1CCN(C(=O)N2CCOCC2)CC1 the results were ugtP null kill 0, PrP 5UTR inh -18, RN4220 kill 0.0, Autofluor counter 3693 and BJeLR lethal -3.

Screening data as filed in PubChem.
